# Source: PubChem
# miR-21 FLuc = raises the signal of a miR-21 reporter; 340,000 tested, under 10 active; AID 2288; HeLa miR-21 FLuc reporter, luciferase, 48 h; Potency, µM (series often up to 38.3 µM), without a hit: at the highest dose reporter change, positive = more light; active = well fitted rising curve with a large enough effect; inconclusive = small, poorly fitted or top-dose-only effect; inactive = no such curve, though single readings can be large or run the other way;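 note: % of control where 0% means no effect; miR-21 action dims this reporter so a rising signal means less miR-21 action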
#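 Compounds were titrated across several concentrations (up to approximately 40 uM) and incubated 48 hours with HeLa miR-21-FLuc reporter cells (miR-21 target sequence downstream of FLuc, endogenous miR-21). Readout was firefly luciferase luminescence after lytic detection reagent.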
# Rango dissoc inh = inhibitors of RanGTP-induced Rango-importin beta complex dissociation; Biochemical FRET Rango-importin beta, RanGTP-induced dissociation; Potency, µM (top dose mostly 46.1 µM), inactives show at the highest dose activity change, negative = inhibition; 0.071% of 340,000 active; active means falling FRET ratio curve, often poorly fitted, with flat reads before Ran was added; inconclusive means other falling curves, or compound fluorescence or quenching; inactive means flat or rising ratio curve;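 note: potency is the fitted concentration of half-maximal effect; % of control where 0% means no effect; nearly all actives have a fitted effect of over 45% in size; -100% = wells without RanGTP and RCC1; the record marks most hits as doubtful in a second field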
#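 Two FRET readings bracket the reaction: one 5 min after compound meets Rango–importin beta, another 45 min after RanGTP-RCC1 (0.6 uM Ran, 0.2 uM RCC1, 2 mM GTP) is added. Only the second defines inhibition.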
# Rango complex inh = inhibitors of Rango-importin beta complex formation. 0.031% of 340,000 active. Potency, µM (highest dose often 92.2 µM), for the others: at the highest dose inhibition of complex formation. Rango CFP/YFP FRET sensor + importin beta, 45 min. Q14974; active = rising FRET ratio curve, often small or poorly fitted; inconclusive = mostly compound fluorescence or quenching in the first reads; inactive = flat curves in all reads;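 note: potency is the fitted concentration of half-maximal effect; 0% = DMSO wells and 100% = buffer wells lacking importin beta; nearly all actives have a fitted effect of over 15% in size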
# Target sequence (Q14974 whole entry, looked up): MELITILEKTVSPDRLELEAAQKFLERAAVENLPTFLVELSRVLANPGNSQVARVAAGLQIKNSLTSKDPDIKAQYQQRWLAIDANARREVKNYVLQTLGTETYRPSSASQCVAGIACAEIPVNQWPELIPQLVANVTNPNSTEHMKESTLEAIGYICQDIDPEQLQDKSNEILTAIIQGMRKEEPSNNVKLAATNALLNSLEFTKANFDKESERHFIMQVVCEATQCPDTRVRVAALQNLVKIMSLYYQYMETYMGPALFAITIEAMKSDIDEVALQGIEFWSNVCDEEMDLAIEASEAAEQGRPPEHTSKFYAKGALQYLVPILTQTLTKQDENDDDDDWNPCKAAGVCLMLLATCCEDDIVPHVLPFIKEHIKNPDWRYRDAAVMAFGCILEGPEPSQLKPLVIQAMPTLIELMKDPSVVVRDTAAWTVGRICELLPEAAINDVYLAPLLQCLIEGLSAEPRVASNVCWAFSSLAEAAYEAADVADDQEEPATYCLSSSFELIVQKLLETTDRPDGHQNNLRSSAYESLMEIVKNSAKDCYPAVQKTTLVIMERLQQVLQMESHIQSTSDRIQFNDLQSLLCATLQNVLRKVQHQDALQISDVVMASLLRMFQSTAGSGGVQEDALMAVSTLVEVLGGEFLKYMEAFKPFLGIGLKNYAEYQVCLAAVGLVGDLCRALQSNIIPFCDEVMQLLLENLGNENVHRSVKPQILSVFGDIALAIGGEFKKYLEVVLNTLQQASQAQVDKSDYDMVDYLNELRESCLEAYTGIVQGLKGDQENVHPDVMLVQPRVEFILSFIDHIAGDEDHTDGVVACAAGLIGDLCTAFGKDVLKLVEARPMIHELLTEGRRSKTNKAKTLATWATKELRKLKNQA
#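 FRET biosensor (snurportin 1 IBB flanked by EYFP and cerulean), 50 nM, with compound 5 min, then 0.125 microM importin beta in PBS, 1 mM DTT, 0.02% Tween-20, 0.1% BSA. CFP/YFP ratio read after 45 min at room temperature; pre-read flags interference.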
# GLA inh pH 4.5 = blocks human alpha-galactosidase A at pH 4.5; activity change, negative = inhibition, % at 105 µM; 230,000 tested, under 10 active; P06280; purified enzyme, 4-MU-alpha-Gal fluorescence, pH 4.5; inconclusive = small, poorly fitted or top-dose-only inhibition, or a rising curve; inactive = flat fitted curve, though single readings scatter; no compound was filed as active;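 note: 0% = full activity with enzyme and -100% = basal without enzyme; dose as in the result columns while the protocol names 77 µM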
# An asterisk follows results filed as active; u = inconclusive; x = no result given; & = joins results of further samples. The list is partial; count on the stated rates, not on these rows.
SMILES,miR-21 FLuc,Rango dissoc inh,Rango complex inh,GLA inh pH 4.5
O=C(Nc1ccnn1C1CCN(Cc2cc(Cl)ccc2O)CC1)c1cccnc1,9.7%,1.3%,0.9%,x
COc1ccc(C(C(=O)NC(C)(C)C)N(C(=O)CNC(=O)c2cccs2)c2ccc(C(C)C)cc2)cc1OC (stereo not given),-1.3%,14.6%,-1.2%,1.0
COc1ccc(NC(=O)Cn2nnc(C(=O)NCc3ccc4c(c3)OCO4)c2N)cc1,-4.4%&-18.7%,2.9%,3.3%,-1.9
CC(=O)N(C(C)=O)c1nc(-c2ccccc2)cn1/N=C/c1ccccc1,28.9%,-8.7%,2.2%,-3.1
C[C@@]12C(=O)Nc3ccc(Br)cc3C(=O)N1[C@H]1c3ccccc3OC[C@@H]1[C@@H]2c1ccccc1,x,-9.2%,0.0%,x
Cc1sc(N(C(=O)CCc2ccccc2)c2ccc(C(=O)O)cc2)nc1-c1ccccc1,-1.5%,-1.8%,-0.6%,1.1
Cc1ccc(NC(=O)C2CCN(S(=O)(=O)c3ccc4c(c3)CCCC(=O)N4)CC2)cc1N(C)C,12.8%&10.9%,9.4%,-0.5%,x
O=c1cc(CSc2nnc(COc3ccccc3)o2)c2ccccc2[nH]1,-9.2%,1.6%,-0.7%,-11.2
Cc1cc(C)cc(NC(=O)COC(=O)c2cc(=O)[nH]c(=O)[nH]2)c1,1.2%,10.1%,u,0.2
O=C(NCC1CCCO1)C1CCCN1C(=O)Nc1ccccc1[N+](=O)[O-] (stereo not given),-0.4%,-3.9%,-1.6%,x
COc1ccc(C(=O)CN(C(=O)c2ccc(Cl)cc2)N2C(=O)C3CCCCC3C2=O)cc1 (stereo not given),1.3%,13.9%,-0.7%,-3.6
Cc1cccc(OCC(=O)NCCNC(=O)c2cnccn2)c1,0.4%,12.1%,-0.6%,x
Cc1cc(=O)[nH]c(-c2ccc(C(F)(F)F)cc2)n1,-2.0%,-10.8%,0.3%,0.3
CC(C)(O)C#Cc1ccc(C(=O)N2CCN(c3ccccc3)CC2)cc1,-1.7%,-26.6%,3.4%,-1.7
COc1ccccc1NC(=O)CSc1nnc(-c2ccco2)n1Cc1ccco1,-7.4%,-10.4%,2.8%,9.6
COc1cc(CCC(=O)Nc2ccc(C)c(S(=O)(=O)N3CCCCCC3)c2)cc(OC)c1OC,x,16.0%,-1.6%,x
COc1ccc(Cl)cc1-n1c(C)ccc1C,0.7%,-2.3%,-0.1%,-2.4
O=S(=O)(NC1CCCCC1Oc1ccccc1)c1ccccc1 (stereo not given),-2.6%,-18.2%,0.0%,-4.9
CCn1c(NC(=O)c2ccco2)c(-c2ccccc2Cl)c(=O)c2ccccc21,-1.9%,9.2%,0.7%,-17.8
CCOc1cc2ccccc2cc1C(=O)Nc1ccccn1,x,13.0%,0.9%,x
CCOC(=O)C1=C(c2ccccc2)Nc2ncnn2C1c1cc(OC)ccc1OC (stereo not given),-7.5%,11.9%,0.1%,-1.8
CCn1c(SCc2ccc(C)cc2)nnc1-c1nn(-c2ccccc2)ccc1=O,17.6%,-11.9%,0.6%,-4.5
CCCC(C)NC(=O)CN(c1ccc2c(c1)OCCO2)S(=O)(=O)c1ccccc1 (stereo not given),-0.3%,8.4%,-1.3%,x
COc1ccc(/C=C/c2c([N+](=O)[O-])c(=O)n(C)c(=O)n2C)c(OC)c1,-13.7%,8.5%,-0.2%,-15.2
COc1ccc(-c2c(=O)n(OC)c3ccccc3[n+]2[O-])cc1OC,-11.4%,-19.6%,u,x
CC(C)C(=O)Nc1ncc(Cc2ccccc2Cl)s1,0.7%,-27.5%,0.1%,0.5
CC(NC(=O)CCOc1ccccc1)c1ccccc1 (stereo not given),-20.9%,5.1%,0.8%,1.7
Cc1ccc(C(O)c2cccnc2)o1 (stereo not given),-0.9%,-9.7%,2.8%,-3.9
CC(Cc1ccccc1)NC(=O)C1CCCNC1=O (stereo not given),6.9%,-6.2%,-3.3%,-3.1
COc1ccc(S(=O)(=O)n2nc(OC(C)=O)cc2N(C(C)=O)C(C)=O)cc1,2.3%,-2.9%,1.0%,0.6
C[C@H](NC(=O)c1ccco1)C(=O)Nc1nnc(SCc2ccccc2)s1,x,45.3%,0.3%,x
C=C(C)c1cc2c(ccc3ccc(=O)oc32)o1,x,1.8%,1.5%,x
COC(=O)c1ccc(CN2C(=O)NC3(CCCc4ccccc43)C2=O)o1 (stereo not given),-0.1%,-4.6%,-0.3%,-1.9
CC1CCCCN1C(=O)COC(=O)c1cc(Cl)c2c(c1)OCO2 (stereo not given),x,8.4%,3.8%,x
Cc1ccc(-n2c(=O)cc(N3CCN(C(=O)c4ccco4)CC3)[nH]c2=O)cc1,-2.0%,-20.2%,-6.3%,4.8
COc1ccc(NC(=O)c2ccc(NC(=O)c3cccs3)cc2)cc1,0.7%,1.3%,0.5%,x
CCn1c(CNC(=O)c2ccco2)nnc1SCC(=O)Nc1cccc(F)c1,-2.7%,14.9%,-4.3%,7.0
COc1ccc(S(=O)(=O)Nc2cc(C)cc(C)n2)c2ccccc12,-7.4%,-4.2%,4.0%,-4.1
CCN(CC)S(=O)(=O)c1ccc(Cl)c(C(=O)NC2CCN(Cc3ccccc3)CC2)c1,8.6%,-8.3%,-0.5%,x
CC(=O)Nc1cccc(NC(=O)c2cccc(-c3ccc(O)cc3)c2)c1,6.6%,4.7%,2.8%,x

# Brought forward from above: 2 compounds, then new ones.
SMILES,miR-21 FLuc,Rango dissoc inh,Rango complex inh,GLA inh pH 4.5
CCN(CC)S(=O)(=O)c1ccc(Cl)c(C(=O)NC2CCN(Cc3ccccc3)CC2)c1,8.6%,-8.3%,-0.5%,x
CC(=O)Nc1cccc(NC(=O)c2cccc(-c3ccc(O)cc3)c2)c1,6.6%,4.7%,2.8%,x
Cc1ccc(C(=O)NNC(=O)Cn2ccc(C(F)(F)F)n2)o1,x,5.2%,1.1%,x
O=S(=O)(c1cccc(Br)c1)N1CCN(CCc2ccccc2)CC1,11.9%,-0.1%,-2.4%,x
N#C/C(C(=O)NCc1ccco1)=C1/SC=C(c2ccccc2)N1c1ccccc1,-12.6%,11.1%,-0.1%,4.3
O=C(Nc1cc2c(cc1Br)OCCO2)c1cccs1,-56.0%,4.7%,-1.4%,-1.3
Nc1ncnc2c1ncn2C1OC(CO)C(O)C1O (stereo not given),5.0%,1.7%,5.0%,-0.5&2.2
CCCCc1c(O)nc(SCC(=O)N2CCCCCC2)[nH]c1=O,8.5%,-22.7%,1.0%,x
CN(c1ncnc(N)c1[N+](=O)[O-])C1CCS(=O)(=O)C1 (stereo not given),25.2%,-0.4%,-1.3%,-19.0
Cc1c(NC(=O)C(C)OC(=O)CC2CC3CCC2C3)c(=O)n(-c2ccccc2)n1C (stereo not given),1.2%,0.0%,-5.4%,4.8
N#CC1=C(N)OC2=C(C(=O)CCC2)C1C1CC=CCC1 (stereo not given),0.4%,-22.2%,-1.9%,-15.0
CCCn1nnc(NC(=O)COc2ccc(C3CCCCC3)cc2)n1,-2.4%,22.0%,7.3%,-0.1
O=C(NCC1CCCO1)c1cc(-c2ccncc2)nc2ccccc12 (stereo not given),x,7.7%,-3.0%,x
COc1ccccc1CNC(=O)COc1ccccc1C,-8.3%,15.0%,-5.1%,x
CCOC(=O)[C@H]1[C@H]2COc3ccc(OC)cc3[C@@H]2N2C(=O)CN(Cc3ccc(OC)cc3)C(=O)[C@@]12C,x,-0.8%,2.7%,x
O=C(O)COCC(=O)Nc1ccccc1-c1ccccc1,4.5%,-13.6%,1.5%,0.8
CC(OC(=O)CCC(=O)c1ccc(Cl)s1)C(=O)NC1(C#N)CCCCC1 (stereo not given),x,-11.8%,-0.6%,x
CCc1cc(C(=O)N(CC(C)C)c2c(N)n(Cc3ccccc3)c(=O)[nH]c2=O)sc1C,x,2.4%,4.9%,x
CNC(=O)CCCCCNS(=O)(=O)c1ccc(C)cc1,-7.9%,0.5%,-0.2%,-1.5
CSc1nnc(C(C)(C)C)c(=O)n1/N=C/c1ccc(Cl)cc1,0.7%,9.2%,-0.8%,1.3
Oc1ccc2ccccc2c1C=NCc1ccccc1,10.3%,-2.9%,-1.0%,4.0
Cc1ccccc1NC(=O)C1C2CCC(O2)C1C(=O)O (stereo not given),-24.1%,-5.4%,-2.3%,-4.1
N#C/C(=C\c1ccccc1OCC(=O)O)c1nc2ccccc2[nH]1,-25.4%,u,u,x
Nc1nc(Br)c2ccccc2c1-c1ccccc1,-16.2%,13µM*,u,-6.3
O=C(N/N=C/c1sc(=O)[nH]c1-[n+]1ccc2ccccc2c1)c1ccccc1[O-],-19.8%,u,u,x
COc1ccccc1C(=O)c1ccccc1C(=O)c1ccccc1,x,6.3%,0.5%,x
COC(=O)c1sccc1NC(=O)c1c(Cl)cnn1C,1.3%,6.1%,2.5%,x
CC(=O)c1sc2nsc(SCCN3CCCC3)c2c1N,2.8%,-4.3%,u,-12.1
O=C(O)c1ccc(Nc2cccc(F)c2)c([N+](=O)[O-])c1,-5.6%,0.4%,1.1%,x
COc1ccc(S(=O)(=O)N2CCOC2CNC(=O)C(=O)NCCCc2ccccc2)cc1 (stereo not given),9.7%,-12.4%,-1.6%,x
c1coc(-c2ccnc3ncnn23)c1,-4.3%,-8.8%,-2.8%,5.7
Cc1cc(NC(=O)c2cc(-c3cccc(OCC(C)C)c3)nc3ccccc23)no1,6.1%,10.5%,-2.1%,x
Cc1ccc(S(=O)(=O)N2C[C@@H]3c4ccccc4N(S(=O)(=O)c4ccc(C)cc4)[C@@H]3[C@@H](C)C2CC(=O)c2ccccc2)cc1 (stereo not given in full),x,2.4%,0.3%,x
COCCCNC(=O)CSc1nc2ccccc2c(=O)n1CCc1ccc(S(N)(=O)=O)cc1,10.3%,-1.2%,-1.3%,x
O=C(c1ccc2c(c1)CCN2S(=O)(=O)c1ccccc1)N1CCN(c2ccc(F)cc2)CC1,9.6%&7.3%,3.3%,1.9%,x
O=C(N/N=C\c1cccnc1)c1cc(-c2ccccc2)nc2c(Cl)cccc12,2.6%,-17.9%,-0.5%,x
Cc1nn(-c2nnc(NCc3ccccc3)nn2)c(C)c1Br,-6.2%,13.5%,-0.9%,-5.5
COn1c(-c2ccc(Cl)cc2Cl)nc2ncccc21,0.1%,-4.3%,1.1%,-0.8
CCOC(=O)OCC(=O)C1(O)CCC2C3CCC4=CC(=O)CCC4(C)C3C(O)CC21C (stereo not given),x,1.7%,-0.3%,x
O=C(O)c1ccc(NC(=O)c2ccc(COc3ccccc3)o2)cc1,-25.8%,-0.6%,0.1%,x
O=C(OCc1ccc(O)cc1)c1c(-c2ccsc2)oc2ccc(N3CCOCC3)cc12,-5.4%,u,u,x
c1ccc(CC2CCN(Cc3ccccn3)CC2)cc1,1.5%,1.1%,-1.5%,8.1
N=c1c2c3c(sc2nc2n1CCCCC2)CCCCC3,-34.8%,3.7%,-2.9%,-10.4
O=C(NC1CCCC1)c1ccc(Br)o1,0.5%,-8.0%,-1.0%,3.9
Cc1cc(S(=O)(=O)Nc2c(C)nn(C)c2C)c(Cl)cc1Cl,-0.7%,-9.2%,0.9%,-4.0
Cc1ccc2nc(N3CCN(c4ccccc4)CC3)c(C=O)c(=O)n2c1,-10.7%,-3.1%,u,7.2
COc1cc2c(cc1OC)C(C)N(C(=O)Nc1ccccc1)CC2 (stereo not given),21.9%,-3.9%,-2.4%,x
CCOC(=O)c1c(NC(=O)CN2CCCCC2)sc2c1CCCC2O (stereo not given),15.4%,-11.5%,2.0%,-6.5
O=C(NCc1ccncc1)c1ccc(NS(=O)(=O)c2ccc(F)cc2)cc1,x,27.4%,-3.2%,x
COc1ccc(C(CNC(=O)c2cc3c(s2)CCCC3)N2CCOCC2)cc1 (stereo not given),6.0%,10.2%,0.6%,x
CSc1nc2c(c(C(F)(F)F)n1)CC(C)CC2 (stereo not given),0.1%,-6.7%,-3.1%,5.4
CC1(c2nnc(-c3ccncc3)o2)CC(c2ccc(Cl)cc2)=NO1 (stereo not given),x,-5.7%,0.0%,x
Cc1ccc(OCC(=O)c2ccc3c(c2)CCCC3)cc1C,-47.9%,-14.8%,1.8%,5.3
